H5N1 antiviral = MDCK cell protection from H5N1 avian flu. actives 0.07% (n = 96,000). inhibition, % at 50 µM. cytopathic effect, luminescence, 72 h; stronger effect = higher value; no value below 0 was filed and about half of the inactive calls have no number; reference of the scale not given here; in the data active = inhibition above about 25%
The depositor's hits bear a star; i = inactive. These rows are one share of the data (hit frequency here may not be typical).

SMILES	H5N1 antiviral
Cc1ccc(S(=O)(=O)N2CC(=O)Nc3ccccc32)cc1C	1.8
CCOC(=O)C1=C(C)NC(=O)NC1c1ccc(C)o1 (stereo unspecified)	2.0
O=C(c1ccc(COc2ccccc2Br)o1)N1CCN(c2ccccn2)CC1	0.4
Cc1nc(N)sc1-c1csc(Nc2ccc(Cl)cn2)n1	i
Cc1cc(=O)c2c(o1)CC(C)(C)CC2=O	0.3
O=C1CSC(c2ccccc2F)N1CCN1CCCCC1 (stereo unspecified)	i
COc1ccc2ncn(-c3ccccc3)c2c1	i
COc1cccc(C(C(=O)NCc2ccco2)N(C(=O)Cn2nnc3ccccc32)C2CC2)c1OC (stereo unspecified)	0.7
O=C(NC1CCCCCC1)C1CCN(c2nc3ccccc3o2)CC1	i
CCOC(=O)CC1C(=O)NCCN1S(=O)(=O)c1ccc(Cl)cc1Cl (stereo unspecified)	i
CC(C)(C)NC(=O)NC(=O)CN1CCN(c2ncc(C(F)(F)F)cc2Cl)CC1	1.5
CCc1nc(Nc2ccc3nccnc3c2)c2oc3ccccc3c2n1	1.8
COc1ccc(CCNC(=O)C2CCN(S(=O)(=O)c3cccc4nonc34)CC2)cc1OC	0.8
Cc1ccc(Cn2ccc(NC(=O)C3C4CCC(C4)C3C(=O)O)n2)cc1 (stereo unspecified)	0.3
COc1ccc(OC)c(C(c2nnnn2Cc2ccccc2)N2CCN(C)CC2)c1 (stereo unspecified)	0.1
COc1ccc(CNC(=O)c2cc(-c3ccc(OC)c(OC)c3)on2)cc1	i
O=C(c1ccco1)N1CCC(c2ccccc2)C1 (stereo unspecified)	1.9
CCCC(=O)Nc1ccc2oc(-c3cccnc3)nc2c1	i
Cn1c(SCC(=O)NCc2ccco2)nnc1-c1cccs1	4.3
COC(=O)c1ccc(/C=N/n2cnnc2)cc1	0.1
Cc1ccc2c(CC(=O)NCc3ccco3)coc2c1C	0.4
Cc1ccc(Nc2nc(CSc3nnc(-c4cccs4)o3)cs2)cc1	6.7
COC(=O)\C(C(C)=O)=C(/C=C/C=C/N(C)C)N(C)C	i
O=C(NCCCN1CCCC1=O)c1ccccc1NS(=O)(=O)c1ccc(Br)cc1	0.1
CCOc1ccccc1C(=O)N1c2ccccc2Sc2ccccc21	0.4
COc1cccc(-c2nn3c(-c4cccc(C)c4)nnc3s2)c1	2.8
Cn1c(=O)c2c(SCC(=O)NCc3ccco3)nc(CC(C)(C)C)nc2n(C)c1=O	7.5
Cc1cc(-c2ccccc2)c(C#N)c(N)n1	0.3
CC(=O)c1cccc(NC(=O)Nc2cnn(Cc3ccc(F)cc3)c2)c1	0.8
Cc1cc2c(cc1C)NC(c1c(C)n(C)n(-c3ccccc3)c1=O)C1=C(CC(C)(C)CC1=O)N2 (stereo unspecified)	3.5
CC1(C)Oc2ccc(NC(=O)c3ccco3)cc2O1	i
CCc1ccccc1N(CC(=O)NCCSCc1ccco1)S(C)(=O)=O	0.8
O=C(OCn1nnc2ccccc2c1=O)C1CCCCC1	i
COc1cc(=O)n2c(-c3ccccc3)csc2n1	i
N#CCCN1CCN(C(=S)c2ccc(-c3cccc(Cl)c3)o2)CC1	i
N#Cc1cccc2cnccc12	0.7
CCOc1ccccc1NC(=O)CCn1c(=O)oc2ccccc21	0.3
O=C(CCCn1c(=O)[nH]c2ccsc2c1=O)N1CCN(c2ccccn2)CC1	0.2
CCOC(=O)N1CCN(C(=O)c2cnn3c(C(F)F)cc(-c4ccc(C)cc4)nc23)CC1	0.3
O=C(NCc1n[nH]c(=S)n1-c1ccccc1)c1ccc(S(=O)(=O)N2CCOCC2)cc1	0.3
CCn1c(COc2ccccc2)nnc1SCC(=O)Nc1cc(C)ccc1OC	i
Cn1c2ccccc2c2ncn(CCN3CCOCC3)c(=O)c21	i
O=C(Cn1cnc2ccccc2c1=O)OCCCCN1C(=O)c2ccccc2C1=O	i
CC(=O)Nc1nonc1-c1nc2ccccc2n1CCC(C)C	i
O=C(c1ccc(Oc2ccccc2)cc1)c1nc2c(n1O)CCCC2	0.8
Cc1cc2cc(CNC(=O)c3ccc(S(=O)(=O)N(C)C)cc3)ccc2n1C	2.7
Cc1cc(C(=O)N2CCN(C/C=C/c3ccccc3)CC2)no1	0.2
Cc1cc(Cl)ccc1OCCCC(=O)N1CCCc2ccccc21	2.9
O=C(C1CCCN(S(=O)(=O)Cc2ccccc2)C1)N1CCCCC1 (stereo unspecified)	i
Cc1nnc2c3ccccc3c(-c3ccc(O)cc3)nn12	0.6
C/C(=C\C(=O)O)C(=O)Nc1nccs1	0.5
O=C(Nc1cccc(C(F)(F)F)c1)c1ccco1	i
NC(Cc1cccc2nsnc12)C(=O)O (stereo unspecified)	i
Cc1cc(C)n(-c2ncnc3sc4c(c23)CC(C)CC4)n1 (stereo unspecified)	1.4
CN(C)P1(N(C)C)=NC(C(F)(F)F)=NC(C(F)(F)F)=N1	i
O=C(NCc1ccncc1)c1ccc(Br)cc1	0.5
O=c1n(Cc2ccc(Cl)cc2)c2sc3c(c2c2ncnn12)CCCC3	1.9
COc1ccc(NC(=O)COC(=O)c2c3c(nc4ccccc24)CCCC3)cc1	i
O=S(=O)(c1ccc2nc(Cc3cccc(C(F)(F)F)c3)[nH]c2c1)N1CCOCC1	2.5
Cc1sc(-n2c(C)cc(C=O)c2C)c(C(=O)O)c1C	0.1
Next section.
SMILES	H5N1 antiviral
COC(=O)CCNc1ccc2c(c1)OCCO2	i
Cc1nnc(C)n1/N=C/c1cc(Br)cc(Br)c1O	i
O=S(=O)(c1ccc(Br)s1)N1CCN(Cc2ccc3c(c2)OCO3)CC1	i
COC(=O)c1oc2ccc(OC)cc2c1N	i
COc1ccc(OC)c2sc(NC(=O)C(C)C)nc12	i
CCOC(=O)C1C(=O)C=C(C)C(C(=O)OCC)C1c1ccc(OC)cc1 (stereo unspecified)	i
COc1cc(C(=S)N2CCC(C)CC2)ccc1O	i
COc1ccc(-c2nnc(SCC(=O)NCc3ccco3)n2C)cc1	1.2
NC(=O)CSCc1nc2ccccc2s1	0.7
N#Cc1c(NC(=O)CSc2nc(-c3ccco3)cc(C(F)(F)F)n2)sc2c1CCCC2	i
COc1ccc(C(=O)CSc2nnc(CNc3ccc(C)cc3C)o2)cc1	i
c1ccc2c(c1)nc(NCC1CCCO1)c1nnnn12 (stereo unspecified)	0.4
COc1ccc(C(=O)c2ccc(N3CCOCC3)cc2)c(OC)c1	i
CC(CNCc1ccc2c(c1)OCO2)NCc1ccc2c(c1)OCO2 (stereo unspecified)	i
Cc1cccc(Oc2sc(C(=O)c3ccccc3)c(N)c2C#N)c1	2.0
CC(=O)Oc1ccc(NC(=O)CSc2ccccc2)cc1	i
O=S1(=O)C=C(Sc2nc3ccccc3s2)c2ccccc21	i
CC(C)CCn1c(Br)nc2c1c(=O)n(CC(N)=O)c(=O)n2C	i
CCN(CC)C(=O)CSc1nnc(COc2ccccc2)n1CC	i
N[C@@H](Cc1c[nH]c2ccccc12)c1nnc(SCc2ccc(F)cc2)o1	i
C=CCN1C(=O)CSc2ccc(C(=O)N3CCC(C)CC3)cc21	2.0
Cn1cnnc1SCNC(=O)C(F)(F)F	i
CNC(=S)Nc1ccc(Nc2ccccc2)cc1	i
CC1(C)CC(=O)C(=Cc2cn(-c3ccccc3)nc2-c2ccc(Cl)cc2)C(=O)C1	i
CC(=O)c1ccc(OCCCC(=O)n2nnc3ccccc32)cc1	1.0
CC1Cc2ccccc2N1S(=O)(=O)c1cccc2nsnc12 (stereo unspecified)	1.1
COc1ccc(OC)c(-c2cn(S(=O)(=O)c3ccccc3)nc2N)c1	i
NC(=O)C1(N2CCCCC2)CCN(Cc2nc3ccccc3c(=O)[nH]2)CC1	i
Cc1[nH]c2c(Br)cccc2c1[C@H]1[C@@H](CC#N)C1(C)C	4.8
COc1ccc(-n2c(O)c(C(C)=NCCN3CCNCC3)c(=O)[nH]c2=O)cc1	i
O=C(NC1CC1)C1CCN(c2ccc(S(=O)(=O)N3CCOCC3)cc2Cl)CC1	0.4
O=C(C1CCN(Cc2ccc(F)cc2)CC1)N(CCO)Cc1ccccc1	i
Cc1ccc(-c2c(C#N)c(N)nc3c2CCCCCC3)o1	i
CCOCCCNC(=S)N1C2CCC1CC(NC(=O)NC1CCCCC1)C2 (stereo unspecified)	0.8
COc1ccc(NC(=O)CNCCC2=CCCCC2)cc1	i
Cc1ccc(S(=O)(=O)N2CCN(C(=O)c3cc(=O)[nH]c4ccccc34)CC2)c(C)c1	7.6
Clc1ccc(CSc2nnc(/C=C/c3ccccc3)o2)cc1	i
COc1ccc(OCCn2c(NC(=O)c3ccco3)nc3ccccc32)cc1	i
CSc1ccc(Cl)c(C(=O)NCc2ccco2)c1	i
CC(=O)Nc1ccc2[nH]c(C)c(CC=C(Cl)Cl)c(=O)c2c1	i
CC(=O)N1CCN=C1SCc1ccccc1Cl	1.7
CC1(C)Cc2c(c(=S)nc(-c3ccccc3)n2CCOCCO)CO1	i
CCC(=O)n1nc(-c2cccnc2)nc1NCc1ccc(OC)cc1	0.1
Clc1ccc(C=NC23CN4CN(CN(C4)C2)C3)cc1	i
N#Cc1nc(Cc2cccc3ccccc23)oc1NCCN1CCCCC1	0.4
CCOC(=O)c1nnn(-c2nonc2-n2cccc2)c1C	0.5
COc1cccc(C2CC(=O)Nc3cc(OC)c(OC)c(OC)c32)c1OC (stereo unspecified)	0.4
CC1CC(c2ccccc2)n2nc(NC(=O)c3cccs3)nc2N1 (stereo unspecified)	5.1
CCN(CC(=O)Nc1ccc2c(c1)OCCO2)C(=O)c1cccc(S(=O)(=O)N2CCOCC2)c1	1.2
O=C(CSc1nccc2ccccc12)N1CCN(c2ccccn2)CC1	i
O=C(c1noc2c1CCCC2)N1CCN(C(c2ccccc2)c2ccccc2)CC1	i
Clc1ccc2c(c1)C(c1ccccc1Cl)=NCc1nnc(N3CCN(CCSc4ccccc4)CC3)n1-2	i
O=C1CC(c2ccccc2)c2ccc(O)cc2O1 (stereo unspecified)	0.9
CCOC(=O)c1c(CNCCN(CC)CC)n(C)c2cc(Br)c(OC)cc12	i
COCCn1c(SCC(=O)Nc2cc(C)cc(C)c2)nnc1C(C)C	1.5
CCc1nc(SCC(=O)N2CC(=O)Nc3ccccc32)c2c(C)c(C)sc2n1	1.8
O=C(c1ccc2c(=O)n(Cc3ccc4c(c3)OCO4)c(=S)[nH]c2c1)N1CCCCC1	0.2
O=C(N/C=C\c1ccccc1)NCc1ccc(Cl)cc1	1.0
O=C(CCC(=O)N(CC(=O)NC1CCCCC1)Cc1ccco1)Nc1nccs1	0.8
Cc1noc(NS(=O)(=O)c2ccc(NC(=O)CSc3nc4c(cc3C#N)CCC4)cc2)c1C	2.0
Next entries
SMILES	H5N1 antiviral
CCNC(=O)COc1ccc(Br)cc1Cl	i
CCOc1ccc(S(=O)(=O)NCc2ccccn2)cc1	0.9
CCCCN(C(=O)NC(=O)Nc1ccccc1OC)S(C)(=O)=O	0.2
Cc1ccc(S(=O)(=O)N2CCN(S(=O)(=O)N3CCCCC3)CC2)cc1	0.5
COc1ccc(CSc2nnc(SCc3ccc([N+](=O)[O-])cc3)s2)cc1	i
O=C(NC(=S)Nc1nc(-c2ccc(Br)cc2)cs1)c1cccnc1	0.6
CC/C(C)=C1\SC(N2CCOCC2)=NC1=O	3.0
COc1ccccc1Nc1nc(N)nc(CN(C)C2CCCCC2)n1	0.1
CCOC(=O)c1ccc(NC(=O)CN(c2ccc(C)cc2)S(=O)(=O)c2c(C)n[nH]c2C)cc1	i
CC(C)NC(=O)c1onc(CSc2ccccc2)c1C(=O)O	0.5
O=C(Nc1cccn(Cc2c(Cl)cccc2Cl)c1=O)c1ccc(Cl)cc1	0.5
COc1ccc(OC)c(/C=N/NC(=O)c2cc[n+](CC(=O)c3ccccc3)cc2)c1	i
COc1ccc(-c2ccc(S(=O)(=O)N3CCOCC3)cc2)cc1	i
O=c1c2ccccc2nc2n1C(CSc1ccc(F)cc1)CN2 (stereo unspecified)	0.2
CC1(C)CC(=O)C2(CC3=C(CC(C)(C)CC3=O)O2)C(=O)C1	i
COc1cccc(OCC(O)CO)c1 (stereo unspecified)	i
Cc1cc(NC(=O)c2ccc3c(c2)C(=O)N(C)C3=O)no1	i
O=C(NCc1ccco1)C(c1ccccc1)N(C(=O)Cc1cccs1)c1ccccc1F (stereo unspecified)	i
Cc1ccccc1C(=O)Nc1cccc(NC(=O)Cn2cnc3c(=O)n(C)c(=O)n(C)c32)c1	i
O=C(CCc1nc2ccccc2c(=O)[nH]1)OCC(=O)N1CCN(S(=O)(=O)c2ccccc2)CC1	0.2
CN(CC(=O)NC1CCCCC1)S(=O)(=O)c1ccc(Br)s1	i
Cc1ccnc(NC(=O)CCC(=O)N(CC(=O)NC2CCCCC2)CC2CCCO2)c1 (stereo unspecified)	0.1
